# NPR1 antag = blocks ANP-stimulated signaling of human Npr1 receptor | AID 1347048 | HEK293 hNpr1 GloSensor cGMP, ANP-stimulated luminescence | 76,000 compounds, 1.6% hits | Potency, µM (top dose mostly 46.3 µM), for inactives: at the top dose activity change, negative = inhibition, hits mostly inhibitors | P16066; active = well fitted inhibition curve with a large enough effect; inconclusive = small, poorly fitted or top-dose-only effect; inactive = no such curve, though single readings can be large or run the other way;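 note: nearly all actives have a fitted effect of over 60% in size; nearly all hits also lower the signal before the agonist is added; a reference antagonist and vehicle were the controls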
# Target sequence (P16066 whole entry, looked up): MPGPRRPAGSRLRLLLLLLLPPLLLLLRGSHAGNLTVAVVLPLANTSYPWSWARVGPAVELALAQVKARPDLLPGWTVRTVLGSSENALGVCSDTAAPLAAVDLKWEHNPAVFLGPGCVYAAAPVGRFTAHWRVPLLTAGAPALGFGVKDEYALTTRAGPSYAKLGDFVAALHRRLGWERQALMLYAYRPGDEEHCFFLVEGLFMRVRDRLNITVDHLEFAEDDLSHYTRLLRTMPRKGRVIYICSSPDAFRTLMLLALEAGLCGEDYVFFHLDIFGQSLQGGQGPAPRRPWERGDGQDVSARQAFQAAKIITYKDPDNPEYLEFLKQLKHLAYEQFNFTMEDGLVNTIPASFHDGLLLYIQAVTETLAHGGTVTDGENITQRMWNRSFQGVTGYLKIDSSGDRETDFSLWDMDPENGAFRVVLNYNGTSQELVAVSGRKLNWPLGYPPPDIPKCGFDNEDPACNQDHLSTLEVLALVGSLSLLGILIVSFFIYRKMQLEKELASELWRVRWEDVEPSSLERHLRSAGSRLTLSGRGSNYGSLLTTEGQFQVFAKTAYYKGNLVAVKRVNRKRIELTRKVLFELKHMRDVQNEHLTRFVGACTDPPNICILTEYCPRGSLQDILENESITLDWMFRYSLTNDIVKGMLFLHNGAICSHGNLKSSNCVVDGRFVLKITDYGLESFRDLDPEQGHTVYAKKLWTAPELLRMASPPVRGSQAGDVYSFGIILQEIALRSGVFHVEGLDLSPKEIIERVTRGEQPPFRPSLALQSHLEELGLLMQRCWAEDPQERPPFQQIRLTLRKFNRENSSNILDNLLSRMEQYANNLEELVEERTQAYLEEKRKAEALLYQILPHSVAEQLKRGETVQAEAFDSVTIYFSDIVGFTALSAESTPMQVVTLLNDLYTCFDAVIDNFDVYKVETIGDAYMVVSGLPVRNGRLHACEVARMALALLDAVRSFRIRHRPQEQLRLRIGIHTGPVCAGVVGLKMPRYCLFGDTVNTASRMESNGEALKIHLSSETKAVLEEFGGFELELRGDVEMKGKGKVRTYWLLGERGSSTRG
#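 Compound pre-incubated 30 min at room temperature on GloSensor-loaded HEK293 cells stably carrying hNpr1 and the pGS-40F cGMP biosensor. Stimulation uses hNppA at 0.1 nM final; luminescence is taken at baseline and 20 min post-agonist.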
# Active calls of the source: *; ? = inconclusive; [ ] = dose if it differs, or a comment. % is set by controls: 0 for no effect and ±100 for the full control effect; potency is the fitted concentration of half-maximal effect. Only part of the results is shown, so the mix of outcomes need not match the whole.
structure	NPR1 antag
COc1cccc(CNC(=O)Cn2nc3n(c2=O)CCCC3)c1	7%
CCOC(=O)c1[nH]ncc1CN(Cc1ccsc1)CC1CCCO1 (stereo unspecified)	1%
O=C(c1c(OCC2CC2)cc(=O)n2c1CCCCC2)N1CCc2ccccc2C1	0%
CCn1cc(S(=O)(=O)N2CC(Oc3cccc(-c4nc(C)no4)c3)C2)cn1	6%
O=C(CCC[C@@H]1[C@H]2CCCN3CCC[C@@H](CN1C(=O)c1cccnc1)[C@@H]23)N1CCCCC1	4%
O=C(Cc1cccc(Cl)c1)NC1CCN(c2cc(-c3cccs3)[nH]n2)C1 (stereo unspecified)	-2%
CNC(=O)c1noc([C@@H]2CC(F)(F)CN2C(=O)CC(C)C)n1	0%
CCc1ocnc1C(=O)N1CC[C@@](O)(C2CCOCC2)[C@H](C)C1	0%
N#Cc1ccc(O[C@@H]2CCOC[C@H]2NC(=O)C2(N3CCCC3)CCCC2)cc1	-1%
CSc1cccc(NC(=O)Cn2c(N3CCc4ccccc4C3)nc(C)cc2=O)c1	-19%
CCOc1ccc(-c2cc3c(=O)n(CCNC(=O)c4ccoc4)ccn3n2)cc1	-5%
NS(=O)(=O)c1ccc(C(=O)N2C[C@@H](CN3CCCCC3)[C@@H](CO)C2)cc1	3%
O=C([C@@H]1C[C@H](Oc2cccnc2)CN1C(=O)c1cc2ccccc2[nH]1)N1CCCC1	3%
COc1ccccc1N1CCN([C@H]2[C@@H]3OC[C@@H](O3)[C@@H](NC(=O)Nc3ccccc3)[C@@H]2O)CC1	2%
CC(=O)Nc1ccc(NC(=O)CN2C(=O)NC3(CCC(C(C)(C)C)CC3)C2=O)cc1 (stereo unspecified)	2%
O=C1CO[C@H]2CN(Cc3ccccc3)C[C@H]2N1Cc1cccc(C(F)(F)F)c1	1%[70.6 µM]
O=C(NCC1(O)CCCNCC1)c1ccc(-n2cnnc2)cc1 (stereo unspecified)	1%
Cn1c(=O)[nH]cc(CC(=O)N2C[C@@H](C(=O)O)[C@H](c3ccncc3)C2)c1=O	-3%
Cc1cccc(OCC(=O)N2CCC(n3cc(-c4nc(C(C)C)no4)nn3)C2)c1 (stereo unspecified)	2%
CCC(=O)N1C[C@@H](Oc2ccccc2)C[C@@H]1C(=O)N1CCOCC1	5%
CCCn1nc(C)cc1CN(C)Cc1ccc(=O)n(CC)c1	-4%
COc1cccc(-c2n[nH]c3c2CC(=O)N(CC2CCOCC2)C3)c1OC	1%[70.6 µM]
Cc1ccc(C(=O)NC2CCN(c3cc(-c4ccccc4)[nH]n3)C2)s1 (stereo unspecified)	1%
Cc1ccc(CC(=O)N2CCCN(c3cc(-c4ccc(C)c(C)c4)[nH]n3)CC2)cc1	?
Cc1cc(S(=O)(=O)N2CCC(Oc3ncccc3C(=O)N3CCOCC3)C2)ccc1F (stereo unspecified)	-3%
CCN(CC)C(=O)C(NC(=O)c1cccc(C)c1)C1CCN(C(=O)c2ccccc2C)CC1 (stereo unspecified)	0%
O=C1CCN(c2ccccc2C(=O)N[C@@H]2CCOC[C@H]2OCCO)C(=O)N1	1%
COc1ccc(CNC(=O)c2cc3c(=O)[nH]c(C)cn3n2)c(OC)c1	0%
Cc1cc(C(=O)N[C@H](C)c2onc(-c3ccc(F)cc3)c2C(=O)O)no1	-1%[70.6 µM]
Cc1nc(CN2CCN(C(=O)C(c3ccccc3F)N(C)C)CC2)cs1 (stereo unspecified)	5%
CCCC1CCCN1C(=O)c1coc(COc2ccc3ccc(OC)cc3c2)n1 (stereo unspecified)	?
Cn1ccc2c(C(=O)NCCc3ccccn3)nc(-c3cccc(N4CCOCC4)c3)cc21	1%
O=C(CCC1CCN(C(=O)c2ccccc2)CC1)Nc1ccc(F)cc1F	-5%
COCCN1C(=O)c2cccn2CC1CNC(=O)CC(C)C (stereo unspecified)	1%
O=C([C@H]1CCC[C@@H](O)C1)N1CCN(c2ccc3nccn3n2)CC1	5%
COc1ccc(C(=O)N2CCC(C(NC(=O)c3cccc(OC)c3)C(=O)N3CCCC3)CC2)cc1 (stereo unspecified)	5%
COC(=O)C1=C(C)N=C2SC=C(CC(=O)N3CCCCC3C)N2C1c1ccc(OC)cc1 (stereo unspecified)	-25%
CN1CCOc2c(C(=O)NCc3cnn(C)c3)cc(-c3ccccc3)cc21	-9%[70.6 µM]
CN(Cc1cccnc1)c1nc2c(c(=O)[nH]1)CCN(Cc1ccccc1F)CC2	2%
Cc1ccc(C(=O)N2CCC([C@@H]3CNC[C@H]3CO)CC2)c(C)c1	-1%
O=C(c1ccccn1)N1CCC(Cc2nc(C3CC3)n[nH]2)C1 (stereo unspecified)	-11%
CCc1nc(-c2c3n(c(=O)n(CC(=O)Nc4cccc(F)c4)c2=O)CCCC3)no1	0%
CCc1nc(CN2CC[C@@H](c3ccc4c(c3)OCO4)[C@H](O)C2)c(C)[nH]1	-3%
O=C1NC2(CCN(Cc3ccsc3)C2)OCc2ccccc21 (stereo unspecified)	0%[70.6 µM]
Cc1cc(C(=O)NCc2ccnc3[nH]ccc23)ccc1Cl	-1%[70.6 µM]
COc1ccc(NC(=O)Cc2ccc(N(Cc3ccc(C)cc3)C(=O)c3ccco3)cc2)cc1	-17%
CCOCC(=O)N1CCC2(CC1)CN(C1CCC1)CC2COC (stereo unspecified)	1%
COCCNC(=O)NC[C@H]1O[C@@H]2C[C@@H](CC(=O)NC(C)C)O[C@@H]2[C@@H]1O	-1%[70.6 µM]
O=C(NCc1ccc(Cl)cc1)[C@@H]1Cc2nc[nH]c2CN1Cc1ccc(Cl)cc1	?
COc1ccc(-n2nc(C3CCCN(C(=O)c4ccc(C)cc4)C3)[nH]c2=O)cc1 (stereo unspecified)	0%
O=C(c1ccccc1)N1CCC(N2CCCCCC2=O)CC1	13%[70.6 µM]
Cc1cc(CN(C)c2cc(C3CC(O)C3)ncn2)n[nH]1 (stereo unspecified)	11%
CN1C[C@H](NC2CCC2)CCC[C@@H](C(=O)N(C)Cc2cccnc2)CC1=O	2%[70.6 µM]
O=C(CC1CCOCC1)N1CCN(Cc2cccc(F)c2)CC1	2%
COc1ccc(-c2cc3c(c(OC)c2)OCCNC3)nn1	15%
CC(C)CCN1CC(C(=O)NCCc2ccncc2)C2(CCOCC2)C1 (stereo unspecified)	1%

# Single entries from the results shown.
# NPR1 antag, CC(=O)Nc1ccc(NC(=O)CN2C(=O)NC3(CCC(C(C)(C)C)CC3)C2=O)cc1 (stereo unspecified) → 2%
# NPR1 antag, O=C(Cc1cccc(Cl)c1)NC1CCN(c2cc(-c3cccs3)[nH]n2)C1 (stereo unspecified) → -2%
# NPR1 antag, Cn1ccc2c(C(=O)NCCc3ccccn3)nc(-c3cccc(N4CCOCC4)c3)cc21 → 1%
# NPR1 antag, O=C(c1ccccn1)N1CCC(Cc2nc(C3CC3)n[nH]2)C1 (stereo unspecified) → -11%
# NPR1 antag, Cc1cc(CN(C)c2cc(C3CC(O)C3)ncn2)n[nH]1 (stereo unspecified) → 11%
# NPR1 antag, CCc1ocnc1C(=O)N1CC[C@@](O)(C2CCOCC2)[C@H](C)C1 → 0%
# NPR1 antag, COc1ccc(-c2cc3c(c(OC)c2)OCCNC3)nn1 → 15%

# (more compounds)
structure	NPR1 antag
Cc1cccc(C(=O)N2C[C@@H](COc3ccccc3)[C@H](C(N)=O)C2)n1	5%
O=C(c1nnn2c1COC(c1ccccc1)C2)N1CCN(C(=O)c2cccc3[nH]ccc23)CC1 (stereo unspecified)	?
Cc1n[nH]nc1C(=O)N1C[C@H](CO)C[C@H](CN(C)C)C1	0%
COc1ccccc1C(=O)NCCC1CCN(C(=O)Nc2ccc(C)cc2)CC1	-2%
O=C(CCC[C@@H]1[C@H]2CCCN3CCC[C@@H](CN1C(=O)c1ccsc1)[C@@H]23)N1CCOCC1	-10%
CC(C)N(Cc1nccn1C)C(=O)CC(c1ccccc1)c1ccccc1F (stereo unspecified)	-11%
Cc1nn(-c2ccc(C(C)(C)C)cc2)c(C)c1[C@@H]1C=C[C@@H](NC(=O)NC(C)C)C1	?
CN1C[C@@H](NC(=O)Nc2cccc(C(F)(F)F)c2)C[C@H]1c1nc(-c2cnccn2)no1	7%[70.6 µM]
COc1ccc(NC(C)=O)cc1NC(=O)C[C@H]1NC(=O)c2ccccc2NC1=O	-5%
N#Cc1cccc(C(=O)N2CCC3(CC2)CN(C2CCC2)CC3CO)c1 (stereo unspecified)	0%
CO[C@H]1C(=O)N(C(C)C)[C@H]1C1CCN(C(=O)c2sc(C)nc2C)CC1	0%
Cc1cc2nc3n(c(=O)c2n1CC(=O)Nc1cc(F)cc(F)c1)CCCC3	4%
C[C@@H](NC(=O)COc1ccccc1)c1c(-c2ccc(Cl)cc2)noc1C(=O)O	2%[70.6 µM]
COCCNC(=O)[C@H]1C[C@H](Oc2ccccc2)CN1C(=O)c1cccc(C)c1	5%
CC(C)(C)CN1C[C@@H](C(=O)O)C[C@H](C(=O)NCc2cccnc2)C1	6%
COCCN1C(=O)CC[C@]2(C(=O)N(C)CCc3ccccn3)CCCC[C@@H]12	-1%
O=C(c1cc(Br)cn2ccnc12)N1CCC(N2CCCCCC2=O)CC1	0%
Cc1cnc(C(=O)N[C@@H]2CCC[C@@H]2C(=O)NCc2cc(F)ccc2F)cn1	0%
COc1ccccc1N1CCN(C(=O)C[C@@H]2O[C@H](CNC(=O)c3ccc(N(C)C)cc3)[C@@H](O)[C@H]2O)CC1	0%
COc1ccc(OC)c(NC(=O)N2c3ccccc3CC2c2nc(C3CC3)no2)c1 (stereo unspecified)	-1%
COc1cccc(-c2ccc(NC(=O)C3CCCN3C(=O)Cn3cccn3)cc2)c1 (stereo unspecified)	-3%
c1ccc(-c2n[nH]c(CC3CCNC3)n2)cc1 (stereo unspecified)	-2%
COc1nc2c(cc1CNC(=O)C(C)(C)OC)C(=O)N(CCc1ccccn1)C2	3%
Nc1nccc(N2CCN(Cc3ccccc3F)C(CCO)C2)n1 (stereo unspecified)	7%
O=C(C1CCOCC1)N1CCC2(CC1)NCCc1c2[nH]c2ccccc12	4%
COc1cccc(CN2C(=O)CCCCC2C(=O)NC2CCCCCC2)c1 (stereo unspecified)	-5%
COc1cccc(C(O)c2nc(C(=O)N3CCN(c4ccccn4)CC3)c(C)o2)c1 (stereo unspecified)	2%[70.6 µM]
O=C1NCCC[C@@H]1NC(=O)[C@H]1CN(C(=O)CS(=O)(=O)c2ccccc2)CCN1C(=O)C1CCCCC1	4%
Cc1cnc(C2CCC2)n1CCNC(=O)c1nccn1C	-2%
Cn1nccc1C(=O)N1CCC(c2noc(-c3ccccc3)n2)C1 (stereo unspecified)	-12%
CC(C)c1ccc(CN2CCC3(CC2)COCCN3C(=O)c2ccc3[nH]ncc3c2)cc1	-5%[70.6 µM]
COCc1c(C(=O)N2C[C@@H](CO)[C@H](c3ccncc3)C2)noc1C	0%
COc1cccc(CN2Cc3cc(NS(=O)(=O)c4ccccc4)ccc3OCC2=O)c1OC	1%
NC(=O)C1CCN(CC[C@H]2CN(C(=O)Cc3ccccc3)CC[C@H]2CC(=O)O)CC1	5%[70.6 µM]
COC(=O)c1ccc2nc(CO[C@H]3CN(C4CCC4)C[C@H]3F)[nH]c2c1	2%[70.6 µM]
COc1ccc2nc(C[C@@H]3C[C@@H](C(C)C)[C@H](CNC(=O)NC4CCCCC4)C=C3C)[nH]c2c1	-15%
O=C(c1ccccn1)N1CCC[C@H]1c1nc(-c2ccccc2)no1	2%
Cc1cc(C)c(S(=O)(=O)N2CCCC(Cn3cc(CO)nn3)C2)c(C)c1 (stereo unspecified)	12%
c1cncc(CNc2cc(-c3cnc4ccccc4n3)c3cc[nH]c3n2)c1	-11%
CCn1nccc1C(=O)N1CCC2(CC1)CC(N1CCN(CC(C)C)CC1)CCO2 (stereo unspecified)	1%
Cc1noc(C)c1C(=O)NCC1Cn2cccc2CN1C (stereo unspecified)	0%
CC(C)N1C[C@H](O)C[C@H]1c1nnc2n1CCN(C(=O)Cc1cccc(F)c1)C2	5%
CCN1CCC2(CCC1=O)CN(Cc1nc(COC)no1)CCN2C (stereo unspecified)	3%
CCCN(C)c1nccnc1OC1CCN(C(=O)c2c(F)cccc2F)C1 (stereo unspecified)	-4%
COc1ccc(CN2CCN(c3nc(C)ccc3C#N)CC2CCO)cc1C (stereo unspecified)	-19%
Cc1cccc(OCC2(CNCc3cccnc3)C[C@@H](O)[C@@H](O)C2)n1 (stereo partly specified)	2%
COc1ccc(NC(=O)C2(C)CCc3cnc(N4CCOCC4)nc32)cn1 (stereo unspecified)	1%[70.6 µM]
COc1ccccc1CNC(=O)CN1CC[C@](C)(O)[C@@H](O)C1	-17%

# 4 compounds drawn at random from those above, as already listed:
structure	NPR1 antag
CC(C)N(Cc1nccn1C)C(=O)CC(c1ccccc1)c1ccccc1F (stereo unspecified)	-11%
O=C([C@H]1CCC[C@@H](O)C1)N1CCN(c2ccc3nccn3n2)CC1	5%
COc1ccccc1C(=O)NCCC1CCN(C(=O)Nc2ccc(C)cc2)CC1	-2%
CCCC1CCCN1C(=O)c1coc(COc2ccc3ccc(OC)cc3c2)n1 (stereo unspecified)	?

# New compounds follow
structure	NPR1 antag
Cn1nc(C(=O)NC2CCc3nn(CC4CC4)c(=O)n3CC2)c2ccccc21 (stereo unspecified)	0%
COC[C@@H]1OC[C@@]2(C)C3CC[C@@H](O)[C@@H](CC(=O)NCc4ccc(F)cc4)[C@]3(C)CC[C@H]2O1 (stereo partly specified)	5%
Cc1c(NC(=O)c2ccco2)cccc1C(=O)N1CCC2(CCNCC2)CC1	1%
CC(C)[C@@H](N)C(=O)N1CCC(Oc2ccccc2F)(C(=O)O)CC1	4%
COc1ccc(CNC(=O)Cn2c(N3CCCCC3)nc(C)c(C)c2=O)cc1	1%
